Assay outcomes as filed in PubChem BioAssay.
Ecoli growth: E. coli growth inhibition, primary screen, OD600; OD600 absorbance (concentration not given with the values); Escherichia coli growth, 23 h; active compounds read low; 330,000 compounds, 0.21% hits; AID 1053175, 2014;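 active means OD600 absorbance below the run mean of sample wells minus 3.6 SD, in any replicate, cut at about 0.56 in these data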;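 further: stock transfer was 300 nL into about 60 µL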
ALR inh: inhibitors of human ALR sulfhydryl oxidase, primary screen, biochemical, H2O2 detection, HRP-luminol luminescence, single point | FAD-linked sulfhydryl oxidase ALR (Homo sapiens), P55789 | purified ALR, DTT oxidation | inhibition, % (no concentration beside the values) | 290,000 compounds, 3.8% hits | AID 485317, 2010;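 active means mean and each replicate at 75% or more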;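 further: stock transfer was 7.5 nL into about 7.5 µL; 0% = neutral wells and 100% = wells with inactivated enzyme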
Target sequence (P55789 whole entry, looked up): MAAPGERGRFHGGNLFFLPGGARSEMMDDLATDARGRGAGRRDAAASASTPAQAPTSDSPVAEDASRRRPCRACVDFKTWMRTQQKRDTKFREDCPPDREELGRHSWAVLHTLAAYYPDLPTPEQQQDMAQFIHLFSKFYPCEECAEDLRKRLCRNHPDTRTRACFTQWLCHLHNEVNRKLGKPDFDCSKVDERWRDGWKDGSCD
FGF22 binding: binders of human FGF22 protein, primary screen, FGF22 synaptogenesis inhibitor project, biophysical, thermal shift, single point; calls only at 9.99 µM; Fibroblast growth factor 22 (Homo sapiens), Q9HCT0; recombinant FGF22 thermal shift, SYPRO orange fluorescence; percent of sucrose octasulfate shift, DMSO zero; AID 651658, 2012; 340,000 compounds, 1.5% hits;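 active means melting point raised past a set limit in the mean and every replicate; three in four hits are not shown here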
Target sequence (Q9HCT0 whole entry, looked up): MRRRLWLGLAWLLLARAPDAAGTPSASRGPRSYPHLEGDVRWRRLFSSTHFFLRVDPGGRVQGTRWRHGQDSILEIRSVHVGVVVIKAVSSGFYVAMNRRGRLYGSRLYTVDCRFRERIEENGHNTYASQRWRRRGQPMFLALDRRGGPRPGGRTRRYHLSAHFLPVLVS
UCH37 inh: inhibitors of human UCH37 deubiquitinase, primary screen, biochemical, Ub-AMC cleavage, fluorescence; Ubiquitin carboxyl-terminal hydrolase isozyme L5 (Homo sapiens), Q9Y5K5; purified proteasome/UCH37; inhibition, % (test concentration not listed); 330,000 compounds, 0.33% hits; AID 588478, 2011;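 active means mean of two replicates above 20%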;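 further: 0% = compound-free wells with enzyme and 100% = wells lacking proteasome; stock transfer was 100 nL into about 20 µL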
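Material: human UCH37 enzyme supplied as purified proteasome complex. Measure: % inhibition of Ub-AMC cleavage fluorescence. Medium: pH 7.4 Tris-HCl (50 mM) with ovalbumin, ATP-MgCl2, DTT. Times: 30 min preincubation with enzyme, 25 min cleavage at room temperature. Detection: AMC fluorescence intensity at 355/460 nm.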
HNF4A DNA FP: change in binding of human HNF4A to DNA, primary screen, biochemical, fluorescence polarization, FITC-DNA; activity change, % at 10 µM; AID 1224865, 2016; 360,000 compounds, 0.3% hits; Hepatocyte nuclear factor 4-alpha (Homo sapiens), P41235; 1 h; in the data active means activity change above about 30%, passing the limit was not always enough;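 further: controls were the assay level and a saturating level of protein; the project sought stronger binding though the title names inhibitors; some compounds called inactive have numbers as strong as hits; positive values seem to mean higher polarization but the record does not say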
B2AR ag: beta2AR agonists driving receptor internalization, primary screen, cell-based, FAP fluorogen, flow cytometry. AID 504454, 2011. Am2.2-beta2AR cells; reference of the scale not given here. response, % (concentration not given with the values). Beta-2 adrenergic receptor (Homo sapiens), P07550. 340,000 compounds, 0.43% hits;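 active means response above a set limit, near 3 SD of response in nonfluorescent compounds, cut at about 42% in these data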;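 further: stock transfer was 100 nL into about 11 µL; a reference agonist was the positive control; negative values mostly stem from fluorescent compounds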
Target sequence (P07550 whole entry, looked up): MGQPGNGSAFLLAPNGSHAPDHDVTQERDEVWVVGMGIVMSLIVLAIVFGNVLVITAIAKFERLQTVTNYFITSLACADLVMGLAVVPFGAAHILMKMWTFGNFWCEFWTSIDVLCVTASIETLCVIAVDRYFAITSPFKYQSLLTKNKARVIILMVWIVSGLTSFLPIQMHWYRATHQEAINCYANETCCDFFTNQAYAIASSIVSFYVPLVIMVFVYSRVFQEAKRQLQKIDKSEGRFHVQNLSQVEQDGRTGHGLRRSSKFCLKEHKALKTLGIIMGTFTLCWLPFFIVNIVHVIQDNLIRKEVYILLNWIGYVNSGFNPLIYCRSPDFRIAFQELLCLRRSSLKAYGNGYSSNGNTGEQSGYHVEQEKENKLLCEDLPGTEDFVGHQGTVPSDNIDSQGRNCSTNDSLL
rRNA inh HTS: reduced GFP signal of wild-type E. coli, primary screen, bacterial rRNA inhibitor project, GFP/RFP fluorescence, OD600, single point; 350,000 compounds, 1.6% hits; E. coli WT GFP vs humanized-ribosome RFP mutants, 24 h; active compounds read low; DMSO median 0, no signal -100; GFP signal change (wild-type ribosome), % (no concentration beside the values);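 active means significant combined selectivity score with lowered wild-type GFP, culture density cut under 30%, mutant RFP and density less affected; inactive means any of these conditions unmet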; further: one replicate is shown; some compounds called inactive have numbers as strong as hits
rRNA inh HTS OD600: recorded beside rRNA inh HTS, whose call it bears; OD600 change, %; measured here: OD600 growth;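 optical density of the mix in the first replicate; 0 = DMSO median and -100 = no signal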
rRNA inh HTS RFP: recorded beside rRNA inh HTS, whose call it bears; RFP signal change, %; measured here: RFP humanized mutant strains;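 first replicate; 0 = DMSO median and -100 = no signal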
* = called active by the depositor; i = inactive; · = not tested or not shown; + = active, no number; & = joins results of further samples; ! = not confirmed by another sample. This is a subset; count on the stated rates, not on these rows.

SMILES	Ecoli growth	ALR inh	FGF22 binding	UCH37 inh	HNF4A DNA FP	B2AR ag	rRNA inh HTS	rRNA inh HTS OD600	rRNA inh HTS RFP
S=C(Nc1ccc(Br)cc1Cl)NC1CCN(Cc2ccccc2)CC1	0.65	-1	i	4.6	2.0	3	-16	-46	33
Cc1cc(C)cc(-n2nnc(C(=O)NCc3ccc4c(c3)OCO4)c2N)c1	0.65	0	·	2.6	0.3	8	·	·	·
CCN(CC)CCCN(Cc1cc2cc3c(cc2[nH]c1=O)OCCO3)C(=O)Nc1ccccc1	0.72	-8	·	-6.7	0.1	12	·	·	·
CCN(CC)CC(=O)N1c2ccccc2Oc2c(c(=O)n(C)c(=O)n2C)C1c1cccc([N+](=O)[O-])c1 (stereo unspecified)	0.64	8	i	5.0	1.1	-1	10	7	1.3
CCC(=O)Nc1nnc(SCC(=O)c2ccc3c(c2)Cc2ccccc2-3)s1	0.74	-5	i	2.4	2.4	-2	1	-3	-4.0
Cc1ccc(C)c(OCCC(=O)OCC(=O)Nc2ccc(C)c(S(=O)(=O)N3CCCCC3)c2)c1	0.71	-14	i	2.4	-3.1	5	8	1	0.5
c1ccc(-n2nnnc2NCCc2c[nH]c3ccccc23)cc1	0.72	-2	·	0.3	3.7	-1	·	·	·
N#CCc1ccnc2ccccc12	0.72	·	i	3.5	6.9	-2	29	0	9.6
CNC(=O)C(C)c1ncc(C(F)(F)F)cc1Cl (stereo unspecified)	0.65	5	i	4.2	0.3	2	4	11	2.6
CCOC(=O)C1=CN(Cc2ccco2)S(=O)(=O)N(CC)C1c1ccc(F)c(Cl)c1 (stereo unspecified)	0.72	·	i	-0.2	-1.4	-1	-5	-5	-0.3
COc1cc(OC)c(CNC2CCCCCC2)cc1Br	0.68	·	i	1.3	0.2	-1	15	10	-2.2
Cc1cccc(CSCCNC(=O)c2ccc(CN3CCOCC3)cc2)c1	0.63	-15	i	1.7	3.6	-7	-18	-3	6.5
COc1cccc(NC(=O)CN(C)C(=O)c2cc(C)oc2C)c1	0.7	-3	i	0.9	-4.6	-3	4	7	-1.4
O=C(Nc1nccs1)C1C2CC3OC(=O)C1C3C2 (stereo unspecified)	0.78	-1	·	1.3	1.5	-4	·	·	·
COc1ccc(NC(=O)COC(=O)CCCOc2ccc(Cl)cc2Cl)cc1Cl	0.71	-21	i	-0.3	0.6	-2	-22*	-9.2*	-4.7*
COC(=O)c1ccccc1NC(=O)CN1CCC(C(=O)c2ccc3c(c2)OCCO3)CC1	0.7	-2	i	1.3	-1.4	3	35	-33	32
COC1=CC(=Cc2c(N)n3nc(CC(=O)N4CCCCC4)sc3nc2=O)C=C(OC)C1=O	·	5	i	·	38*	-568	7	7	-0.2
O=C(NCc1nc2ccccc2[nH]1)C1=C[C@@H](c2csc3ccccc23)C[C@@H](OCc2ccc(CO)cc2)O1	·	2	i	1.6	7.7	0	-1	12	11
CN(C)C(=O)CSc1nnc(C23CC4CC(CC(C4)C2)C3)o1	0.72	-9	·	3.4	-5.5	-12	·	·	·
CCN1CCN(C(c2cccs2)C(C)NC(=O)CC(C)C)CC1 (stereo unspecified)	0.69	·	·	0.8	0.6	-2	·	·	·
COc1ccc(S(=O)(=O)Nc2ccc(-n3cnnn3)cc2)cc1Br	0.67	·	i	5.5	1.0	1	-1	-14	1.9
COc1ccc(C(=O)C[n+]2ccccc2C)cc1	0.68	5	i	4.4	-0.5	6	14	5	-7.4
Cc1ccc(NC(=O)CNC(=O)C23CC4CC(CC(C4)C2)C3)nc1	·	·	i	·	-1.2	·	2	9	-1.1
OC(CNC1CCCCCC1)COc1cccc2ccccc12 (stereo unspecified)	0.62	-32	i	1.0	-6.6	20	-6	-24	18
CCS(=O)(=O)c1ccc2oc(SCC(=O)NC34CC5CC(CC(C5)C3)C4)nc2c1	0.65	0	·	2.9	-0.9	-3	·	·	·
CCCNC(=O)c1onc(CS(=O)(=O)c2cc(C)cc(C)c2)c1C(=O)NCCC	0.68	-2	i	3.1	2.6	-16	2	2	1.6
CCOc1ccc(C(=O)OCC(=O)Nc2ccc(SC(F)F)cc2)cc1OCC	0.74	-6	·	0.1	-0.3	30	·	·	·
O=c1c(Cc2c(F)cccc2Cl)c(O)ccn1CCc1ccccn1	0.66	-8	i	4.5	5.0	0	0	-3	2.3
O=C(c1ccccc1NS(=O)(=O)c1cccs1)N1CCCC1	0.67	-1	·	3.1	-0.7	-1	·	·	·
O=C1N=C(N2CCN(c3ccccc3)CC2)S/C1=C\c1cn[nH]c1-c1ccccc1	0.65	-5	i	-0.6	0.9	19	2	1	2.1
CC(NCC(=O)Nc1ccccc1C(=O)NC1CC1)c1cccc(C(F)(F)F)c1 (stereo unspecified)	0.69	3	i	0.3	-4.0	-5	-8	-12	1.4
Cc1c(Cl)sn(-c2ccc(Cl)cc2)c1=O	0.062*	·	i	0.1	2.1	49*	-48	-83	-21
CC1(c2ccccc2)CC(C)(C)n2c(O)c(C3=NC(=S)NC3=O)c3cccc1c32 (stereo unspecified)	0.69	-7	i	8.7	-4.6	10	9	-2	-5.2
COc1cccc(-c2csc(N3CCN(C(=S)Nc4ccccc4C)CC3)n2)c1	0.7	1	i	-1.0	-1.0	0	-12	-15	3.4
CC1CCc2nn(CC(=O)NCCCN3CCCC3=O)cc2C1 (stereo unspecified)	0.75	·	i	3.8	1.7	2	10	20	1.0
Cc1csc(NC(=O)CSc2nnc(Cc3cccn3C)n2CCc2ccccc2)n1	0.69	-4	i	-2.1	3.9	0	-6	-9	4.4
O=c1cnn(Cc2ccc(Cl)c(Cl)c2)c2ccccc12	0.7	6	i	0.7	1.3	-3	1	-2	-1.3
Cc1cccc(NCN2C(=O)c3ccccc3C2=O)c1	0.69	-4	·	4.4	5.7	-1	·	·	·
c1ccc(-c2nc(SCc3nc4ccccc4[nH]3)c3oc4ccccc4c3n2)cc1	0.68	22	i	1.9	-4.1	-14	2	3	-4.0
COc1ccc(CN(C)C(=S)Nc2ccc(Cl)cc2Cl)cc1	0.66	2	i	3.1	5.8	0	-37	-55	-4.8
COc1cccc(CNC(=O)Cn2ccc([N+](=O)[O-])n2)c1	0.66	-7	i	3.9	3.9	·	12	23	-0.8
Cc1ccc(-n2nnc3c(=O)n(CC(=O)N4CCC(C)CC4)cnc32)cc1	0.66	1	i	1.0	1.5	1	12	8	-2.1
COc1ccccc1-n1nnnc1SCC(=O)NCC1CCCO1 (stereo unspecified)	0.67	9	·	7.4	1.8	0	9	11	-0.9
CC(CCc1ccccc1)NC(=O)COC(=O)c1ccc([N+](=O)[O-])cc1 (stereo unspecified)	0.64	-9	i	0.4	-4.3	1	15	16	-2.3
CCCc1cc(=O)oc2c(C)c(OC3CCCCC3=O)ccc12 (stereo unspecified)	0.67	·	i	-16	0.9	1	3	4	0.6
COc1cc(-c2noc(C3CCCN(C(=O)c4c(F)cccc4F)C3)n2)cc(OC)c1OC (stereo unspecified)	0.71	-10	i	1.8	-1.4	10	-17	-17	-2.4
Cc1cc(C)c(C(=O)N2CCCC(N3CCN(c4ccc(F)cc4)CC3)C2)o1 (stereo unspecified)	·	62	i	·	2.0	1	-7	-12	1.9
Cc1ccccc1OCC(=O)OCC(=O)Nc1ccc(S(N)(=O)=O)cc1	0.68	-3	i	4.0	-4.0	-2	13	10	3.3
CN(CCOC(=O)/C=C/c1ccccc1)C(C)(C)C	0.72	-5	i	2.7	0.9	-3	-1	16	-3.2
Cc1ccc(C(=O)Nc2ccc(S(=O)(=O)N3CCOCC3)cc2)cc1	0.64	-6	i	5.3	-5.2	5	-9	-2	-2.5
Carrying on:
SMILES	Ecoli growth	ALR inh	FGF22 binding	UCH37 inh	HNF4A DNA FP	B2AR ag	rRNA inh HTS	rRNA inh HTS OD600	rRNA inh HTS RFP
Cc1ccc2c(c1)/C(=N/OS(=O)(=O)c1ccccc1)CCS2	·	46	·	·	-1.8	2	·	·	·
Cc1cccc(N/N=C2/COC(C)(C)CC2=O)c1	·	93*	i	·	6.0	1	0	2	0.2
Cc1ccc(OCC(=O)Nc2cccc3ccccc23)c([N+](=O)[O-])n1	0.68	·	i	2.6	0.4	6	-2	-26	0.8
CCN(C(=O)CSc1nnc2c3ccccc3n(CC)c2n1)C1CCS(=O)(=O)C1 (stereo unspecified)	0.7	-2	·	11	-4.5	-10	·	·	·
COc1ccc(Nc2oc(COc3cccc(C)c3)nc2C#N)cc1	0.73	·	·	1.0	2.9	5	·	·	·
COc1ccc(NC2=C(c3ccc(OC)cc3)C(=O)c3ccccc32)cc1	0.7	·	i	5.5	-4.0	-6	·	·	·
O=C(COC(=O)C1CC2C=CC1C2)Nc1c(Br)cc([N+](=O)[O-])cc1Br (stereo unspecified)	0.67	-21	i	2.7	-1.9	5	-5	3	3.9
O=C(Nc1cc(S(=O)(=O)N2CCCCC2)ccc1O)c1ccccc1NS(=O)(=O)c1ccc(F)cc1	0.63&0.67	16	+!	-5.2&-16	-5.6&-3.2	8&14	-56&-56	-74&-77	-19&-29
O=C(CCN1C(=O)c2cccc3cccc(c23)C1=O)NC1CCS(=O)(=O)C1 (stereo unspecified)	0.64	-5	i	-113	-1.4	1	12	8	-0.9
CCS(=O)(=O)Nc1cccc(C2=NN(S(=O)(=O)CC)C(c3cccs3)C2)c1 (stereo unspecified)	0.69	-4	i	3.7	0.7	19	-8	-14	2.1

Ordered by number of heavy atoms (ascending): part of the list above.
SMILES	Ecoli growth	ALR inh	FGF22 binding	UCH37 inh	HNF4A DNA FP	B2AR ag	rRNA inh HTS	rRNA inh HTS OD600	rRNA inh HTS RFP
Cc1cccc(N/N=C2/COC(C)(C)CC2=O)c1	·	93*	i	·	6.0	1	0	2	0.2
Cc1ccc2c(c1)/C(=N/OS(=O)(=O)c1ccccc1)CCS2	·	46	·	·	-1.8	2	·	·	·
O=C(COC(=O)C1CC2C=CC1C2)Nc1c(Br)cc([N+](=O)[O-])cc1Br (stereo unspecified)	0.67	-21	i	2.7	-1.9	5	-5	3	3.9
O=C(CCN1C(=O)c2cccc3cccc(c23)C1=O)NC1CCS(=O)(=O)C1 (stereo unspecified)	0.64	-5	i	-113	-1.4	1	12	8	-0.9
O=C(Nc1cc(S(=O)(=O)N2CCCCC2)ccc1O)c1ccccc1NS(=O)(=O)c1ccc(F)cc1	0.63&0.67	16	+!	-5.2&-16	-5.6&-3.2	8&14	-56&-56	-74&-77	-19&-29

The results go on:
SMILES	Ecoli growth	ALR inh	FGF22 binding	UCH37 inh	HNF4A DNA FP	B2AR ag	rRNA inh HTS	rRNA inh HTS OD600	rRNA inh HTS RFP
COc1ccc(-c2cnn(-c3ccccc3)c2N)cc1OC	0.68	90*	·	1.2	-0.9	-16	·	·	·
O=[N+]([O-])c1ccc(C2Nc3cccc4cccc(c34)N2)cc1	0.68	-5	·	2.2	-2.0	5	·	·	·
c1ccc(-c2nnc3sc(CN4CCc5ccccc54)cn23)cc1	0.72	9	·	-0.8	-0.1	17	·	·	·
CC(CC(=O)O)C(=O)c1ccc(Cl)c([N+](=O)[O-])c1 (stereo unspecified)	0.71	·	i	4.8	0.5	15	11	10	-3.8
